# 26S disassembly = blocks ATP-dependent breakdown of the yeast 26S proteasome; anti-FLAG beads, GFP-proteasome disassembly, flow cytometry; inhibition of disassembly, % (no concentration beside the values); actives 0.2% (n = 24,000);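 active means above 40%; inconclusive means likely self-fluorescent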;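 further: plate controls were ATP control with full disassembly for no effect and ATP-gamma-S intact proteasomes for full effect; higher percent means more bead fluorescence retained so stronger block of disassembly; stock transfer was 100 nL into about 10 µL; wells with too few beads may also be inconclusive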
# VCAM-1 up = enhancers of VCAM-1 display on endothelial cells, cell-based, plate reader, pooled HUVEC, TNFa stimulus (AID 455) | HUVEC TNFa-induced VCAM-1 immunofluorescence, plate reader; numbers were filed only for top-ranked candidate wells | augmentation, % at 5 µM | actives 0.2% (n = 10,000);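 active means a compound raising TNF-alpha-driven VCAM-1 surface staining, with its hit status upheld on visual or statistical review; inactive means the rest, including hits rejected on review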;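 further: 0% = TNFa with vehicle and 100% = strongest image-checked hit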
# * hit, by the source's call; i = inactive; u = inconclusive; x = not tested or not shown. An excerpt; count on the stated rates, not on these rows.
VCAM-1 up,26S disassembly,molecule
i,-1.2,COc1ccc(OC)c(NC(=O)CCNS(=O)(=O)c2cccs2)c1
x,0.3,CCc1c(C)nc2c(C#N)c[nH]n2c1=O
i,0.2,COC(=O)C1C(=O)c2c([nH]c(C(=O)OCCOC(C)C)c2C)CC1C (stereo not given)
i,1.7,CC(C)Oc1ccc(C2C(C(=O)c3ccco3)=C(O)C(=O)N2CCCN(C)C)cc1 (stereo not given)
x,-2.4,CC(c1ccccc1)C(CC(=O)O)C(=O)NC1CCCCC1 (stereo not given)
i,-1.3,Cn1c(CSc2nc3ccccc3s2)nnc1SCC(=O)NCCN1CCOCC1
i,0.5,O=C(c1ccc(Cl)cc1)C1CCN(C(=O)NC2CCCCC2)CC1
x,1.3,O=C(O)c1ccc2c(c1)ncn2C1CCCCCC1
i,-1.4,c1coc(-c2nnc(-c3cccs3)o2)c1
x,0.6,COC(=O)c1cc2sccc2n1CC(=O)N1CCCc2ccccc21
i,0.0,Cc1c(CNCc2cccs2)c(C(=O)O)c(C)n1Cc1ccccc1
i,-1.0,CCc1c(C(=O)N2CCOCC2)csc1C
x,1.5,CC1=CC(=C2C(=O)c3ccccc3C2=O)C=C(C)N1Cc1ccco1
x,9.3,CCN(CCCNC(=O)C1CCC(=O)N1Cc1ccc(F)cc1)c1cccc(C)c1 (stereo not given)
x,0.1,CC(C)(C)c1ccc(-c2nnc3sc(-c4ccccn4)nn23)cc1
x,-1.2,O=C(CSc1nc2ccccc2c(=O)[nH]1)N1CCCCC1
i,1.0,CC1CN(C(=O)c2cc3cc(Cl)cc(Cl)c3oc2=O)CC(C)O1 (stereo not given)
x,0.9,COC(=O)c1ccc(CSc2nc3c(cnn3-c3ccc(Cl)cc3)c(=O)[nH]2)o1
i,0.2,CCCCCCCC(=O)OCC(=O)[C@@]1(O)CC[C@H]2[C@@H]3CCC4=CC(=O)CC[C@]4(C)[C@H]3[C@@H](O)C[C@@]21C
x,-0.6,Cc1cc(N2CCOCC2)nc2ccc(NC(=O)CCC(=O)N3CCC(C)CC3)cc12

# Single records, as listed above.
# O=C(c1ccc(Cl)cc1)C1CCN(C(=O)NC2CCCCC2)CC1 is listed as VCAM-1 up = i; 26S disassembly = 0.5
# CCc1c(C(=O)N2CCOCC2)csc1C is listed as VCAM-1 up = i; 26S disassembly = -1.0

# The results go on:
VCAM-1 up,26S disassembly,molecule
x,0.4,O=S(=O)(c1cccs1)N1CCN(c2ccccn2)CC1
i,-1.8,O=C(CN1C(=O)CSC1=O)Nc1ccc(N2CCOCC2)cc1
x,0.4,CCCc1cc(C(=O)NCCc2ccccc2)no1
x,-1.2,COc1ccc(NC(=O)Cn2cccc2)cc1Cl
x,11.0,Cc1ccc(C)c(N2CCN(C(=O)C3CCN(c4nnc(N5CCCC5=O)s4)CC3)CC2)c1
x,-2.5,CC#CCCCC(=O)Nc1cc(OC)nc(OC)n1
x,0.3,O=C1SC(c2ccccc2)=N/C1=C/c1ccco1
i,0.9,Cc1occc1C(=O)Nc1ccc(S(=O)(=O)N2CCN(C)CC2)cc1
i,0.6,COc1ccc(S(=O)(=O)Nc2ccccc2OC)cc1C
x,-0.8,COc1ccc(C2C(C(=O)N3CCN(c4ccc(OC)cc4)CC3)c3ccccc3C(=O)N2C)cc1 (stereo not given)
i,-0.2,CC(=O)c1c(C)nn(C(C)CC(=O)O)c1C (stereo not given)
x,-1.1,COc1ccc(Cl)cc1C(=O)Nn1c(C)nc2ccccc2c1=O
i,-1.7,CC1CCN(C(=O)CSc2nc3c(cnn3-c3ccccc3)c(=O)[nH]2)CC1
x,-1.6,COc1ccc(S(=O)(=O)Cc2ccc(C(=O)NCc3ccccn3)o2)cc1
x,-1.7,Cc1onc(-c2ccccc2Cl)c1C(=O)NCCCN1CCOCC1
x,1.8,CN1C(=O)OC2(C)CCc3ccccc3C12C (stereo not given)
x,8.8,CCOC(=O)c1csc(Nc2nc3ccc(F)cc3s2)n1
i,-0.9,COCCNC(=O)c1ccc(CS(=O)(=O)c2ccc(OC)cc2)o1
i,-1.6,COc1cc(C)c(-c2cc(C(=O)O)c(C)o2)cc1C(C)C
x,0.7,COc1ccc(Cl)cc1N1C(=O)C2CCCN2C1c1ccc(F)c(F)c1 (stereo not given)

# Ordered by SMILES length (largest number first): some entries from above.
VCAM-1 up,26S disassembly,molecule
x,0.7,COc1ccc(Cl)cc1N1C(=O)C2CCCN2C1c1ccc(F)c(F)c1 (stereo not given)
i,-1.8,O=C(CN1C(=O)CSC1=O)Nc1ccc(N2CCOCC2)cc1
x,0.4,O=S(=O)(c1cccs1)N1CCN(c2ccccn2)CC1

# Continued:
VCAM-1 up,26S disassembly,molecule
i,1.7,O=C(NCC1COc2ccccc2O1)c1ccc(NC(=O)c2ccco2)cc1 (stereo not given)
i,-1.6,COc1ccc(CCNC(=O)CSc2nnc(CNc3ccc(Cl)cc3)o2)cc1OC
i,0.2,O=C(C1CCCO1)N1CCN(C(c2ccccc2)c2ccccc2)CC1 (stereo not given)
i,-0.2,Cc1ccc(S(=O)(=O)N2CCC(C(=O)N3CCN(Cc4ccccc4)CC3)CC2)cc1
x,1.9,COc1cc(NC(=O)c2noc3c2CCC3)c(OC)cc1Cl
x,-0.4,Cc1nc2cc(-c3cccc(F)c3)nn2c(C)c1CCC(=O)NC(C)CCc1ccco1 (stereo not given)
i,u,Cc1cccc(-n2c(SCc3cc(=O)n4ccsc4n3)nc3ccccc32)c1
x,-1.4,Clc1cccc2sc(N3CCN(c4ccccc4)CC3)nc12
i,-0.9,CCC(=O)Oc1ccc(C(CC)C(CC)c2ccc(OC(=O)CC)cc2)cc1 (stereo not given)
i,0.0,COC(=O)c1cc(NC(=O)C2COc3ccccc3O2)cc(C(=O)OC)c1 (stereo not given)
x,1.6,O=C(Cc1coc(-c2ccc(F)cc2)n1)NC1CCCCC1
i,-1.8,COc1cccc(NC(=O)CSc2nnc(-c3cccs3)n2C)c1
i,-0.3,Cc1ccc(CNC(=O)CCCn2c(=O)c3ccccc3n(CC(=O)NCc3ccco3)c2=O)cc1
i,-0.8,Cn1c(N2CCC(C(N)=O)CC2)nc2c1c(=O)n(Cc1ccc(Br)cc1)c(=O)n2C
i,0.6,Cc1cccc(N2CCN(C(=O)C3CCCN(S(=O)(=O)c4cnc[nH]4)C3)CC2C)c1 (stereo not given)
i,-2.9,COc1ccc(C2=NOC(C(=O)NC3CCCCC3)C2)cc1OC (stereo not given)
x,-1.5,O=C(CN1C(=O)C2C3C=CC(C3)C2C1=O)N1CC(=O)N(CCc2ccccc2)C(=O)C1 (stereo not given)
x,-1.6,CCOC(=O)CNC(=O)CSc1nnc(Cn2c(=O)sc3ccccc32)n1C
x,0.4,Cc1ccc(Cn2ccc(NC(=O)c3cc(-c4cccc(Cl)c4)on3)n2)cc1
i,-1.1,C=Cn1nc(C)c2ccccc2c1=O
i,-1.4,CCNc1nc(N2CCOCC2)nc(N(c2ccccc2)c2ccccc2)n1
x,-1.0,O=C1Nc2ccccc2SC(c2ccccc2)C1O (stereo not given)
i,-2.7,O=C(CSc1ncccn1)c1ccccc1Br
x,-1.4,COc1ccc(S(=O)(=O)N2CCCN(CC(=O)Nc3ccc(OC)c(Cl)c3)CC2)cc1
i,0.6,CCc1c(C(=O)Nc2ncn(Cc3cccc(C)c3)n2)csc1C
x,1.1,Nc1nc2n(n1)C(c1ccc(Cl)cc1)CC(c1ccc(F)cc1)N2 (stereo not given)
x,0.2,COc1ccc(S(=O)(=O)Cc2ccc(C(=O)NCc3cccnc3)o2)cc1
x,-0.5,CCC(C)Nc1nc(OCC(F)(F)F)nc(OCC(F)(F)F)n1 (stereo not given)
i,0.1,COc1ccc(-c2cc(C(=O)Nc3ccc(C)cc3)no2)cc1
x,-1.6,O=C(C1CCN(S(=O)(=O)c2cccc3cccnc23)CC1)N1CCN(C2CCCC2)CC1
x,19.1,CN(C)c1ccc(C2C=C(c3ccc(Cl)cc3OC(F)F)Nc3ncnn32)cc1 (stereo not given)
i,2.6,Cc1nnc(SCC(=O)N2CCC(C(=O)Nc3nccs3)CC2)n1Cc1ccccc1
x,-1.8,Nc1nnnn1/N=C/c1ccccc1OCc1ccc(Cl)cc1Cl
x,0.2,Cn1c(=O)oc2cc(S(=O)(=O)N3CCC(C(=O)NCc4cccs4)CC3)ccc21
x,-1.2,CCC(=O)Nc1nonc1-c1nc2ccccc2n1CC(C)C
x,0.7,O=C(O)CC1C(=O)OCN1C(=O)OCc1ccccc1 (stereo not given)
i,-1.2,c1ccc(CC2CCN(Cc3nc(-c4ccccc4)no3)CC2)cc1
i,-0.7,CCCn1cc(SCC(=O)NCc2ccco2)c2ccccc21
i,-1.2,CC1(C)Cc2cccc(OCC(O)CN3CCN(c4ccccn4)CC3)c2O1 (stereo not given)
i,20.2,CC(C)(C)c1cc(C(=S)N2CCN(CCO)CC2)cc(C(C)(C)C)c1O
x,2.7,CC(C)c1cc(C(=O)NC2CCCCC2)no1
i,1.2,CC(=O)Nc1ccc(S(=O)(=O)NCc2csc(-c3cccnc3)n2)cc1
x,-1.5,O=C(CC1Nc2ccccc2NC1=O)NCC1COc2ccccc2O1 (stereo not given)
x,0.0,CC1(C(=O)NC2CCCCCC2)CCC(=O)N1Cc1ccc2c(c1)OCO2 (stereo not given)
i,1.1,COC(=O)CSC1=C(C#N)C(c2ccccc2)CC(=O)N1 (stereo not given)
x,1.4,Cc1cc(NC(=O)c2cc(-c3ccco3)on2)nn1Cc1ccc(Cl)cc1
x,0.6,CCOC(=O)C1CCCN(C(=O)C2CCN(c3nnc(-n4cccc4)s3)CC2)C1 (stereo not given)
i,1.7,Cc1nc2sc3c(c2c(=O)o1)CCC3
x,0.0,O=C(NCC1CCCO1)c1ccc(/C=N/O)nc1 (stereo not given)
x,1.6,CC(C)COC(=O)C1C2C=CC3(CN(C4CCCC4)C(=O)C13)O2 (stereo not given)
i,-0.2,O=C1CCCC2=C1C(c1ccsc1)CC(=O)N2c1ccccc1 (stereo not given)
x,1.5,C=CCn1cc(Cl)c(=O)n(CC=C)c1=O
x,0.1,COc1ccc(OC)c(S(=O)(=O)Nc2ccc(OCC(=O)O)cc2)c1
i,0.9,N#Cc1nc(-c2ccco2)oc1NCc1ccco1
i,-2.9,Cc1ccc(S(=O)(=O)N2CCN(S(=O)(=O)N(C)C)CC2)cc1
x,-1.1,Oc1ccccc1CNc1nc2ccccc2n1CCN1CCCCC1
x,-0.7,CC(C)Oc1ccc(N2CC(C(=O)Nc3ccc4c(c3)OCO4)CC2=O)cc1 (stereo not given)
i,0.9,Cc1cc(NC(=O)CS(=O)(=O)c2cn(Cc3cccc(F)c3)c3ccccc23)no1
i,-1.0,CCc1ccc2c(CN(CC)Cc3nc4ccccc4c(=O)[nH]3)cc(=O)oc2c1
i,0.2,COc1ccc(N2C(=O)CC(NC3CC3)C2=O)cc1 (stereo not given)

# New compounds follow
VCAM-1 up,26S disassembly,molecule
x,-3.0,O=C(NCc1ccncc1)/C(=N/O)c1ccccc1
x,7.2,COC(=O)c1ccccc1NC(=O)C1CCCN(c2nnc(-n3cccc3)s2)C1 (stereo not given)
i,2.2,CC(C)(C)n1nnnc1CN(Cc1ccco1)Cc1cc2cc3c(cc2[nH]c1=O)OCO3
x,2.7,Cc1n[nH]c(C)c1S(=O)(=O)N1CCCC(C(=O)N2CCc3ccccc32)C1 (stereo not given)
x,0.0,CCOc1ccc(Cn2nnc(C(=O)Nc3cc(OC)cc(OC)c3)c2N)cc1
x,1.3,CCN(CC)c1ccc(NC(=O)CSc2nnc(N)s2)cc1C
i,2.8,C=C(C)C1Cc2c(C)nn(-c3nc(C)cc(C)n3)c2C1 (stereo not given)
x,-2.5,O=C(Nc1c2c(nn1-c1ccc(F)cc1)CS(=O)C2)C12CC3CC(CC(C3)C1)C2 (stereo not given)
x,0.1,CCOC(=O)C1CCCN(C(=O)CCn2nc(-c3ccccc3)ccc2=O)C1 (stereo not given)
x,-0.6,O=C(c1ccco1)N1C2C=CC(C2)C1(C(F)(F)F)C(F)(F)F (stereo not given)
i,-0.4,Cc1ccc2cc3cc(C(=O)NCCN4CCOCC4)oc3nc2c1
x,-1.7,COc1ccc(NC(=O)CSc2nnc(CNC(=O)c3ccco3)o2)c(OC)c1
x,0.4,CCOC(=O)c1c(C)c(C(=O)NCC2CCCO2)c(C)n1CC (stereo not given)
x,-0.6,CCCCN(C(=O)NC(=O)Nc1ccccc1OCC)S(C)(=O)=O
x,1.4,COc1ccc(N2CCN(CCCNC(=O)c3cc4sccc4n3C)CC2)cc1
i,-0.5,Cc1nc(N)c(C#N)c(-c2cccnc2)c1C
i,-0.7,COc1cccc(NC(=O)CN2CCN(c3ccccc3F)CC2)c1
i,0.0,CS(=O)(=O)N1CCc2cc(S(=O)(=O)Nc3ccc4oc5c(c4c3)CCCC5)ccc21
x,0.8,COc1ccc(CC(=O)Nc2c3c(nn2-c2ccccc2C)CS(=O)C3)cc1 (stereo not given)
x,3.4,COc1cccc(C(=O)Nc2ccc3nc(N4CCOCC4)cc(C)c3c2)c1

# An excerpt of these results, field by field.
Structure: CS(=O)(=O)N1CCc2cc(S(=O)(=O)Nc3ccc4oc5c(c4c3)CCCC5)ccc21
  VCAM-1 up = i | 26S disassembly = 0.0
Structure: COc1ccc(NC(=O)CSc2nnc(CNC(=O)c3ccco3)o2)c(OC)c1
  VCAM-1 up = x | 26S disassembly = -1.7
Structure: O=C(NCc1ccncc1)/C(=N/O)c1ccccc1
  VCAM-1 up = x | 26S disassembly = -3.0
